2A StopGo: FMDV 2A StopGo reporter, luciferase signal. human cells with a luciferase reporter of 2A StopGo recoding; control for the full effect not named in the record. Potency, µM (highest dose often 57.9 µM), for inactives: top-dose signal change, negative = less light. 410,000 compounds, 1.2% hits. AID 1159524; active = well fitted falling curve with a large enough effect; inconclusive = small, poorly fitted or top-dose-only effect; inactive = no such curve, though single readings can be large or run the other way; tested in HEK293T cells; also: % is scaled to controls: 0 for no effect and ±100 for the full control effect; nearly all actives have a fitted effect of over 45% in size; luciferase light after 4 h
RE007 growth inh: less growth of the S. pombe RE007 Vpr strain; S. pombe RE007 Vpr strain, BacTiter-Glo ATP luminescence, 24 h; control for the full effect not named in the record; Potency, µM (highest dose often 92.2 µM), for inactives: at the highest dose activity change, negative = less growth; 360,000 compounds, 0.21% hits; AID 651644; active = well fitted falling curve with a large enough effect; inconclusive = small, poorly fitted or top-dose-only effect; inactive = no such curve, though single readings can be large or run the other way;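 also: % is scaled to controls: 0 for no effect and ±100 for the full control effect; nearly all actives have a fitted effect of over 50% in size; the assay follows cell death caused by Vpr and the record does not say whether a fall means rescue or toxicity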
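Fission yeast strain RE007, carrying one chromosomally integrated HIV-1 vpr copy, was seeded at OD 0.01 in PMG+AL medium with 23 nL pinned compound. After 24 h at 30 °C and 99% humidity, viability was read by BacTiter-Glo luminescence.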
SARS PLpro yeast: blocks SARS-CoV papain-like protease in a yeast assay; S. cerevisiae expressing SARS-CoV PLpro, growth rescue; control for the full effect not named in the record; Potency, µM (titrated, usually from 32.9 µM), for the others: top-dose activity, positive = growth rescue; 330,000 compounds, 0.19% hits; AID 485353; active means well fitted rising curve with a large enough effect; inconclusive means small, poorly fitted or top-dose-only effect; inactive means no such curve, though single readings can be large or run the other way; also: 0% is about no effect; nearly all actives have a fitted effect of over 55% in size; growth read by luminescence after 48 h
The depositor's hits bear a star; ? = inconclusive; [ ] = remark or other dose. Potency is read from the fitted curve at half-maximal effect. Only part of the results is shown, so the mix of outcomes need not match the whole.

SMILES	2A StopGo	RE007 growth inh	SARS PLpro yeast
CC(C)(C)NC(=O)NC(=O)CN1CCN(c2ccccc2)CC1	-13.2%	1.7%	-0.3%
COC(=O)C1CCN(C(=O)c2cc(-c3ccc(Cl)s3)nc3ccccc23)CC1	35.5µM*	23.8%	-0.7%
C#CCOCCOCCOCCNc1nc(N2CCN(C(=O)[C@H](CCCCN)n3cc(CN)nn3)CC2)nc(N2CCN(C(=O)[C@H](CCC(=O)O)n3cc(CN)nn3)CC2)n1	-19.9%	-10.1%	0.7%
Oc1ccc(C[C@H]2CNCCN2CCCCC2CCCCC2)cc1	-26.8%	-6.7%	0.8%
COc1ccc(-c2noc(CCC(=O)NCCCN3CCN(c4ccccc4F)CC3)n2)cc1	?	-4.5%	-2.2%
O=C(NCc1ccccc1)c1nc[nH]c1C(=O)N1CCN(c2ccccc2)CC1	-17.2%	6.2%	-1.3%
COc1ccc(C(C)(C)C)cc1NC(=O)COc1ccc(-c2nnco2)cc1	?	1.5%	1.3%
CSc1nc(N)nc2c1ncn2CC(=O)NCCCN1CCCC1=O	-20.1%	7.8%	17.5%
CCC1(c2ccc(F)cc2)NC(=O)N(CC(=O)N2c3ccccc3NC(=O)CC2C)C1=O (stereo not drawn)	-25.3%	7.4%	-2.0%
O=C(COC(=O)c1ccccc1O)Nc1ccc(N2CCOCC2)cc1	1.2%	-2.3%	0.6%
COc1ccc([C@H]2CC(=O)C=C(c3ccc(OC(F)(F)F)cc3)C2)cc1OC	0.0%	-21.9%	0.9%
CCN(C(=O)CSc1nnnn1-c1ccc(OC)cc1)C1CCS(=O)(=O)C1 (stereo not drawn)	-8.2%	0.2%	-2.0%
O=C(COC(=O)c1ccc([N+](=O)[O-])o1)Nc1ccc(F)cc1	-7.6%	10.2%	-12.0%
Cc1noc(C)c1COc1ccccc1C(=O)NCCOc1ccccc1F	6.0%	-9.5%	12.7%
COc1cc([N+](=O)[O-])cc2sc(NC(=O)C3CC3)nc12	1.6%	-5.5%	-1.5%
CC(=O)Nc1ccc(NC(=O)C(C)OC(=O)C2(c3ccc(F)cc3)CCCC2)cc1 (stereo not drawn)	25.1µM*	8.8%	1.6%
C[C@H](CO)N1C[C@H](C)[C@@H](CN(C)C(=O)NC2CCCCC2)Oc2c(cccc2N(C)C)C1=O	68.1%[activator]	8.3%	0.5%
CCCN(CC(=O)Nc1ccccc1C)C(=O)Cc1cccs1	-12.9%	-5.2%	-0.3%
O=C(NCc1cccnc1)Nc1ccc2c(c1)OCO2	43.2%[activator]	-14.8%	-0.7%
O=C1CN=C(c2ccc(F)cc2)c2oc3ccccc3c2N1	0.0%	-0.5%	1.7%
CCN(C(=O)COC(=O)c1oc2ccccc2c1C)c1c(N)n(Cc2ccccc2)c(=O)[nH]c1=O	-21.4%	-20.6%	-0.8%
O=C(COC(=O)CCC1CCCC1)Nc1ccc(F)cc1Cl	-14.3%	-6.7%	0.6%
Cc1ccc(S(=O)(=O)N2[C@@H](c3ccc(C(C)(C)C)cc3)C(C(=O)O)=CC[C@H]2c2ccc(C(C)C)cc2)cc1	?	3.3%	1.6%
O=C(Nc1ccccc1N1CCCC1)c1ccc([N+](=O)[O-])cc1Cl	0.0%	-6.2%	0.6%
Nc1ccc(-c2nc3ccc(N)cc3[nH]2)cc1	43.1%[activator]	-0.9%	-7.5%
The list continues.
SMILES	2A StopGo	RE007 growth inh	SARS PLpro yeast
COc1cc2cc(CCOC(=O)N3CCCCC3)oc(=O)c2cc1OC	-4.6%	7.3%	3.0%
CC1CC(C)CN(C(=O)C2CC(=O)N(c3ccc4c(c3)OCCO4)C2)C1 (stereo not drawn)	-7.9%	10.3%	-6.3%
Cn1c(C=O)c(C#Cc2ccccc2)c2ccccc21	-0.6%	-13.3%	-1.1%
CC(C)(C)c1ccc(C(=O)NCCC(=O)Nc2cc(Cl)ccc2N2CCOCC2)cc1	3.6%	-9.5%	-5.3%
CC(=O)Nc1sc(C)c(C)c1C(=O)OCC(=O)Nc1cccc(C)c1	-10.8%	-1.7%	-1.0%
CN(Cc1nc2ccccc2c(=O)[nH]1)C(=O)c1ccccc1OCc1ccc(Cl)cc1	?	-1.4%	-5.7%
O=C(c1cc(-c2cccnc2)nc2ccccc12)N1CCN(S(=O)(=O)c2cccs2)CC1	-21.8%	5.6%	-0.3%
Cc1cc(Cl)ccc1OCC(=O)Nc1cccc(S(=O)(=O)N2CCCC2)c1	-0.6%	12.6%	4.0%
O=C(COc1ccc([N+](=O)[O-])cc1)Nc1ccc2c(c1)CCC2	29.0%	-16.5%	-5.3%
CC(C)(C)C(=O)Cn1c(=O)n(-c2ccc(F)cc2F)c(=O)c2sccc21	-25.0%	-1.2%	-4.1%
N#Cc1ccc(NC(=O)CSc2n[nH]c(=O)n2C2CC2)cc1	-2.4%	-1.0%	-3.5%
Cc1noc(C)c1COc1ccccc1C(=O)NCc1ccco1	-13.6%	-0.4%	2.1%
COC(=O)c1ccc(CNC(=O)CCNC(=O)c2ccco2)cc1	-15.8%	-6.3%	6.5%
CC[C@]12c3[nH]c4ccc(Cl)cc4c3CCN1C(=O)[C@@H](CC(=O)NCc1ccco1)C[C@@H]2C(=O)N1CCN(C(=O)c2ccco2)CC1	?	-20.9%	6.9%
COc1cc(N)c(Cl)cc1C(=O)OCC(=O)Nc1ccc(N2CCOCC2)cc1	-27.8%	2.4%	-2.3%
O=C(OCC(=O)N1CCc2ccccc21)[C@@H]1CCCN1S(=O)(=O)c1ccccc1F	-12.9%	8.6%	4.3%
Cc1noc(C)c1S(=O)(=O)Nc1ccc2c(c1)C(=O)N([C@H](C)CO)C[C@H](C)[C@@H](CN(C)C(=O)Nc1ccc(C(F)(F)F)cc1)O2	-7.4%	2.5%	-5.2%
CCC(CO)Oc1cc(NCc2ccc(Cl)cc2)c2ncn(C(C)C)c2c1 (stereo not drawn)	-27.1%	-6.5%	-0.8%
S=C1NC2(CCCC2)N=C1c1ccccc1	-8.5%	12.2%	17.1%
C/C(=N\NC(=O)c1cc(C)oc1C)c1ccc(C)c([N+](=O)[O-])c1	5.5%	-8.4%	-4.6%
C#CCOc1cc(C2C3=C(COC3=O)Nc3cc4c(cc32)OCO4)ccc1OC (stereo not drawn)	-21.4%	6.3%	-1.6%
COc1ccc(OC)c(/C=C/C(=O)Nc2cccc(S(=O)(=O)NC3=NCCCCC3)c2)c1	-1.7%	2.7%	2.3%
Cc1ccc(-c2csc(NC(=O)CN3C(=O)CCC3=O)n2)cc1	7.5%	2.7%	0.1%
CC(C)N=c1c([N+](=O)[O-])nn(C)n1O	-6.7%	-6.5%	2.3%
CC(C)N(C(=O)COC(=O)c1ccc([N+](=O)[O-])cc1)c1ccccc1	-14.3%	10.8%	1.7%

The last 6 compounds of the section before come first, to join the parts.
SMILES	2A StopGo	RE007 growth inh	SARS PLpro yeast
C/C(=N\NC(=O)c1cc(C)oc1C)c1ccc(C)c([N+](=O)[O-])c1	5.5%	-8.4%	-4.6%
C#CCOc1cc(C2C3=C(COC3=O)Nc3cc4c(cc32)OCO4)ccc1OC (stereo not drawn)	-21.4%	6.3%	-1.6%
COc1ccc(OC)c(/C=C/C(=O)Nc2cccc(S(=O)(=O)NC3=NCCCCC3)c2)c1	-1.7%	2.7%	2.3%
Cc1ccc(-c2csc(NC(=O)CN3C(=O)CCC3=O)n2)cc1	7.5%	2.7%	0.1%
CC(C)N=c1c([N+](=O)[O-])nn(C)n1O	-6.7%	-6.5%	2.3%
CC(C)N(C(=O)COC(=O)c1ccc([N+](=O)[O-])cc1)c1ccccc1	-14.3%	10.8%	1.7%
O=C(CN1C(=O)c2ccc([N+](=O)[O-])cc2C1=O)Nc1cc(S(=O)(=O)N2CCOCC2)ccc1Cl	-1.7%	-8.2%	-0.7%
CCCCNC(=O)C(C)N(CCN(C)C)C(=O)CCCN1C(=O)NC(c2ccc([N+](=O)[O-])cc2)C(C(=O)OCc2ccccc2)=C1C (stereo not drawn)	0.0%	-11.9%	11.3%
COc1cc(F)c(C2=CC(=O)CC(C)(C)C2)cc1F	14.7%	-18.9%	-7.0%
COc1ccc(CNC(=O)Cn2ccc(NC(=O)OCc3ccccc3)nc2=O)cc1	-9.7%	-5.1%	-3.4%
C#CCOCCOCCOCCNc1nc(N2CCN(C(=O)CCCCCCCCCCNC(=O)Cn3cc(CCCCCN)nn3)CC2)nc(N2CCN(C(=O)CCCCCCCCCCNC(=O)Cn3cc(C[C@@H](C)O)nn3)CC2)n1	-5.3%	4.2%	-1.9%
COc1cc(C(C)=O)ccc1OCC(=O)NCC1(N2CCCCC2)CCCCC1	-7.6%	-12.6%	2.9%
CC(=O)Nc1ccc(C(=O)Nc2cccc(S(=O)(=O)N(C)c3ccccc3)c2)cc1	?	20.0%	9.0%
O=C(C[C@@H]1C/C=C\C[C@@H](Cc2ccc(F)cc2)C(=O)OC[C@H]2CCCN2C1=O)N[C@H](CO)Cc1ccccc1	-16.2%	8.0%	0.4%
CN1CCN(c2ccc(S(=O)(=O)N3CCOCC3)cc2NC(=O)CSCc2ccccc2)CC1	0.0%	0.4%	5.0%
CN(CCC#N)C(=S)Nc1ccc(S(=O)(=O)N2CCOCC2)cc1	-22.0%	-1.1%	-3.8%
CC(=O)N1CCN(C(=O)CCNS(=O)(=O)c2ccc(Br)cc2)CC1	-12.5%	-7.0%	2.5%
CCOC(=O)C1=C(COC(=O)CCOc2ccccc2)NC(=O)NC1C (stereo not drawn)	-19.2%	2.5%	-32.9%
COC(=O)C1=C(c2ccc3ccccc3c2)C[C@@H]2CC[C@H]1N2C(=O)NCC1CC1	?	8.8%	-2.5%
CC(C(=O)NC1CCCC1)N1CCN(S(=O)(=O)c2ccc(C(C)(C)C)cc2)CC1 (stereo not drawn)	-26.5%	15.9%	1.1%
O=C(/C=C/c1ccccc1[N+](=O)[O-])OC1CCCCC1=O (stereo not drawn)	54.0%[activator]	0.1%	-1.0%
CCN(CC)CCCNC(=O)c1sc2ncn(CC(=O)Nc3ccc(C)c(Cl)c3)c(=O)c2c1C	-8.3%	-14.7%	-4.2%
Cc1csc(NC(=O)c2cc3ccccc3o2)n1	-33.4%	?	-11.9%
O=C(Cc1cccs1)N[C@@H]1c2ccccc2CC[C@H]1OCc1ccccc1	1.6%	-2.6%	1.1%
CC1(C)CC(Cc2nc(=S)[nH][nH]2)C(=O)O1 (stereo not drawn)	-7.3%	-9.2%	1.6%
C[C@@H]1CN([C@@H](C)CO)C(=O)c2cccc(NC(=O)Nc3ccccc3)c2O[C@H]1CN(C)C(=O)Nc1cccc2ccccc12	-1.0%	-1.9%	6.9%
COC(=O)c1cccc(NC(=O)CCc2c(C)noc2C)c1	0.4%	1.1%	-1.4%[6.58 µM]
COC(=O)C1=C(c2ccc3ccccc3c2)C[C@@H]2CC[C@H]1N2C(=O)NCCNC(C)=O	-12.9%	2.9%	-3.1%
Cc1ccc(NC(=O)c2ncn(CC(=O)N3CCN(c4ccccn4)CC3)n2)cc1C	1.7%	-8.1%	-8.9%
C#CCOCCOCCOCCNc1nc(N2CCN(C(=O)CCCCCCCCCCNC(=O)[C@H](CCCCN)n3cc(CCO)nn3)CC2)nc(N2CCN(C(=O)CCCCCCCCCCNC(=O)[C@H](CCCCN)n3cc(CCCC(=O)O)nn3)CC2)n1	-21.4%	8.2%	-5.3%
O=C(CSc1ccccc1F)NCC(c1cccs1)N1CCOCC1 (stereo not drawn)	-15.0%	-16.0%	-0.9%
The list continues.
SMILES	2A StopGo	RE007 growth inh	SARS PLpro yeast
O=C(CN1CCC(NC(=O)C2CCCCC2)CC1)NCc1ccco1	-5.3%	-7.4%	1.7%
CCN(C[C@H]1N[C@@](C)(C(=O)OC)[C@H]2C(=O)N(C)C(=O)[C@@H]12)C(=O)c1ccccc1	17.6%	3.9%	-7.0%
COc1ccc(C(=O)NCCOc2ccccc2)cc1S(=O)(=O)N1CCOCC1	-14.0%	1.4%	-7.4%
CC(C)CN1Cc2ccccc2Oc2cc(Br)ccc2S1(=O)=O	-0.2%	7.0%	-44.8%
CN(C(=O)c1ccc(NC(=O)Cc2ccc(NC(=O)C3CCCN(C(=O)C4CCC4)C3)cc2)cc1)C1CC1 (stereo not drawn)	-10.4%	6.7%	-0.3%
COc1ccc(CCNC(=O)COc2ccc(N(C)S(=O)(=O)c3ccc(C)cc3)cc2)cc1	?	-1.1%	2.0%
CC1CCC(N(C(=O)c2csnn2)C(C(=O)NC(C)(C)C)c2cccnc2)CC1 (stereo not drawn)	-6.5%	20.7%	1.5%
COC(=O)[C@@]1(Cc2ccccc2)[C@H]2C(=O)N(C)C(=O)[C@H]2[C@H]2CN=C(SCC(=O)c3ccccc3)N21	4.6%	-27.8%	22.0%
Cc1c(C(=O)N2CCN(c3ncccn3)CC2)oc2ccc(Cl)cc12	?	-5.2%	-5.5%[6.58 µM]
O=C(COC(=O)c1cccnc1Cl)NCCc1ccccc1	9.8%	-12.9%	-6.8%

High-throughput results deposited in PubChem by National Center for Advancing Translational Sciences (NCATS).
